# KCNQ2 inh – KCNQ2 potassium channel inhibitors, primary screen, cell-based, CHO-K1, FluxOR thallium flux, B-score (AID 2156); O88943; 20 min; hits give low values; only compounds with negative scores are shown here; some inactives read as strong as hits; B-score at 10 µM; 310,000 compounds, 1.1% hits;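 active = fluorescence ratio B-score at most minus 3 library SDs, with starting brightness B-score within 2 library SDs, cut at about -5.5 in these data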
# Target sequence (O88943 whole entry, looked up): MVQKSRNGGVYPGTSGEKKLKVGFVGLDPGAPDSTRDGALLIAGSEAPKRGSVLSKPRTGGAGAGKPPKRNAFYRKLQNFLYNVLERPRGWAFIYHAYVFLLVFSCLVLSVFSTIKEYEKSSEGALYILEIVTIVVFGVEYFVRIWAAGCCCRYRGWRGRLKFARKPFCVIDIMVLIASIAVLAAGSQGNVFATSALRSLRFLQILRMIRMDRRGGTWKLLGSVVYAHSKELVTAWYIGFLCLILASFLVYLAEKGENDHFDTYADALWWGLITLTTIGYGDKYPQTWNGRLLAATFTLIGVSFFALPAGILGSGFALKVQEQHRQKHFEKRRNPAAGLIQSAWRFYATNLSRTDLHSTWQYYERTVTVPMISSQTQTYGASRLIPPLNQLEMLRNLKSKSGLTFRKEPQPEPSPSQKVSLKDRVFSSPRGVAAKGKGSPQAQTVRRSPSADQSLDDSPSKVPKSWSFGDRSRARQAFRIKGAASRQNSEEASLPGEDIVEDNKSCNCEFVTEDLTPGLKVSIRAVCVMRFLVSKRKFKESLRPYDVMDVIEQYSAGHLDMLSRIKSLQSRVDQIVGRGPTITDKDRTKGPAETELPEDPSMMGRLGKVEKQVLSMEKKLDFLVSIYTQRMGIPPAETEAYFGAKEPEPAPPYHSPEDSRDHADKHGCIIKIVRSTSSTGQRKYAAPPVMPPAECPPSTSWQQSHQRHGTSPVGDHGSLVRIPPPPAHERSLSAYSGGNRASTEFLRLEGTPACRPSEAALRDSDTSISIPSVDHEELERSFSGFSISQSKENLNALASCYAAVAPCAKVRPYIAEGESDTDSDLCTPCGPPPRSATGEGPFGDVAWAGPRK
# KCNQ2 inh baseline – further read-out of KCNQ2 inh, marked with its call; B-score; measured here: initial fluorescence intensity artifact check;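 brightness before thallium and not channel activity; 0 = typical well and far values either way flag optical interference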
# Numbers without * were called inactive; i = inactive.
# Start of the listing, in advance:
# Each structure is followed by: KCNQ2 inh	KCNQ2 inh baseline
CSc1nc2ccccc2n1CC(=O)Nc1cc(C(F)(F)F)ccc1N1CCOCC1
  i	-0.05
CCOC(=O)Cn1c(CCC(=O)O)ccc1-c1ccc(F)cc1
  -9.3*	-1.4*

# This part in full, from the start:
# Each structure is followed by: KCNQ2 inh	KCNQ2 inh baseline
CSc1nc2ccccc2n1CC(=O)Nc1cc(C(F)(F)F)ccc1N1CCOCC1
  i	-0.05
CCOC(=O)Cn1c(CCC(=O)O)ccc1-c1ccc(F)cc1
  -9.3*	-1.4*
CCn1cc(C(=O)O)c(=O)c2cnc(N3CCN(C(=S)NC(=O)c4ccc(Br)cc4)CC3)nc21
  i	0.41
CC(C)(O)c1ccccc1CC[C@@H](SCC1(CC(=O)O)CC1)c1cccc(/C=C/c2ccc3ccc(Cl)cc3n2)c1
  -6.4*	-1.2*
O=[N+]([O-])c1ccc(OCC(O)CNC2CCCC2)cc1 (configuration not stated)
  i	-0.3
c1ccc2oc(Cc3ccc(Cc4nc5ccccc5o4)cc3)nc2c1
  i	-0.39
COc1ccc(OC)c(-c2cc(C(=O)N/N=C(\C)c3cccnc3)c3ccccc3n2)c1
  i	0.37
O=C(CSc1nnc(CCc2ccccc2)n1-c1ccc(Cl)cc1)c1ccccc1
  i	-1.3
COc1ccc(OC)c(/C=C2\SC(=S)N(N3CCOCC3)C2=O)c1
  i	0.01
S=c1[nH]nc(-c2ccccc2)n1/N=C/C=C/c1ccco1
  i	0.03
Cc1cc(C)c(C)c(S(=O)(=O)NCCCn2ccnc2)c1C
  i	-0.69
CC(=O)c1ccc(NC(=O)C2(c3ccccc3)CC2(Cl)Cl)cc1 (configuration not stated)
  i	-1.5
COc1ccc(/C=C/C(=O)OCC(=O)c2ccc3c(c2)NC(=O)CO3)cc1
  i	-0.61
Cc1ccc(C(=O)NC2CC(C)(C)NC(C)(C)C2)cc1S(=O)(=O)N1CCCCC1
  i	2.1
COc1ccccc1NC(=O)C(=N\O)/C(C)=N/O
  i	-0.12
O=C(NCCN1CCOCC1)c1ccc(CS(=O)c2ccccc2Cl)o1 (configuration not stated)
  i	3.7
C=CCn1c(=NC(=O)c2ccc(S(=O)(=O)N3CCc4ccccc4C3)cc2)sc2cc(S(N)(=O)=O)ccc21
  i	0.09
Fc1cccc(-c2cc3nc(-c4ccccc4)cc(N4CCC5(CC4)OCCO5)n3n2)c1
  i	1.2
CC(=O)c1cccc(NC(=O)c2ccccc2N(Cc2ccccc2)S(C)(=O)=O)c1
  i	-0.88
Cc1noc(C)c1CSCC(=O)Oc1ccc(N(C)S(=O)(=O)c2ccc(Cl)cc2)cc1
  i	-0.54

# Next part; the last 3 above are carried over.
# Each structure is followed by: KCNQ2 inh	KCNQ2 inh baseline
Fc1cccc(-c2cc3nc(-c4ccccc4)cc(N4CCC5(CC4)OCCO5)n3n2)c1
  i	1.2
CC(=O)c1cccc(NC(=O)c2ccccc2N(Cc2ccccc2)S(C)(=O)=O)c1
  i	-0.88
Cc1noc(C)c1CSCC(=O)Oc1ccc(N(C)S(=O)(=O)c2ccc(Cl)cc2)cc1
  i	-0.54
O=c1[nH]c2ccccc2n2c(-c3ccccc3)nnc12
  i	-0.29
CCOc1ccccc1NC(=O)c1cccc(NC2=NC3CS(=O)(=O)CC3S2)c1 (configuration not stated)
  i	0.98
CN1CC(=O)Nc2ccc(Br)cc2C1=O
  i	-1.5
COc1ccc(CN(C)S(=O)(=O)c2nnc(NC(=O)c3ccccc3OC)s2)cc1OC
  i	0.16
COc1ccc(S(=O)(=O)CC(=O)c2cc(C)c(O)c(C)c2)cc1
  i	1.8
O=C(CCC(=O)Nc1ccc(F)cc1)N/N=C/c1ccccc1
  i	0.6
Cc1[nH]c2ccccc2c1C(=O)C(C)OC(=O)c1ccccc1NCCO (configuration not stated)
  i	-1
COc1ccccc1Nc1nc(N)nc(CN2CCC(Cc3ccccc3)CC2)n1
  i	0.84
Cn1c(=O)c2c(nc(CN3CCN(c4ccccc4)CC3)n2Cc2ccccc2Cl)n(C)c1=O
  i	-0.44
CC(=O)C1[C@H](N(C)C)CC2C3CC=C4CC(O)CC[C@]4(C)C3CC[C@@]21C (some centres not stated)
  i	1
COc1ccc(-c2cc3c(=O)n(CC(=O)N4CCCC4)ncn3n2)cc1
  i	2
Cc1ccc(-n2nc3c(c2NC(=O)c2ccc4c(c2)OCO4)CSC3)cc1
  i	1.9
CCOc1ccc(C(=O)Nc2cnn(Cc3ccc(Cl)c(Cl)c3)c2)cc1
  i	-0.06
C=CCNC(=O)c1ccc(CNS(=O)(=O)c2ccc(NC(C)=O)cc2)cc1
  i	0.07
COc1cc(C(=O)/C=C/c2cccnc2)ccc1O
  i	-2.5
COc1ccccc1OCc1nnc(SCC(=O)Nc2ccc(N3CCOCC3)cc2)n1C
  i	1.9
CCc1ccc(C(=O)c2cc3ccc(O)cc3oc2=O)cc1
  i	0.94
CCCCC(=O)Nc1ccc(C(=O)N(CC)c2ccccc2C)cc1
  i	0.57
C/C=C1\COC(C(=O)NCc2ccccc2)(C(F)(F)F)C=C1C=C1CCCCC1 (configuration not stated)
  i	0.5
Oc1ccc(-c2[nH]ncc2-c2ccc(Br)cc2)c(O)c1
  i	-1.1

# Of the compounds above, 5 contain fluorine:
# Each structure is followed by: KCNQ2 inh	KCNQ2 inh baseline
CSc1nc2ccccc2n1CC(=O)Nc1cc(C(F)(F)F)ccc1N1CCOCC1
  i	-0.05
CCOC(=O)Cn1c(CCC(=O)O)ccc1-c1ccc(F)cc1
  -9.3*	-1.4*
Fc1cccc(-c2cc3nc(-c4ccccc4)cc(N4CCC5(CC4)OCCO5)n3n2)c1
  i	1.2
O=C(CCC(=O)Nc1ccc(F)cc1)N/N=C/c1ccccc1
  i	0.6
C/C=C1\COC(C(=O)NCc2ccccc2)(C(F)(F)F)C=C1C=C1CCCCC1 (configuration not stated)
  i	0.5

# Next part
# Each structure is followed by: KCNQ2 inh	KCNQ2 inh baseline
CN(CCOc1ccc(Cl)cc1)C(=O)c1cc([N+](=O)[O-])ccc1N1CCOCC1
  i	-0.65
C=CCNC(=S)NNC(=O)COc1cccc(Cl)c1
  i	3
COc1ccccc1NC(=O)/C(C#N)=C/c1cccnc1
  i	-0.45
COc1ccc(C(=O)CCC(=O)NCCc2c[nH]c3ccccc23)cc1
  i	-0.6
CC(=O)c1ccc(NC(=S)N2CCN(CCN3C(=O)c4cccc5cccc(c45)C3=O)CC2)cc1
  i	-0.6
CC(C)OP(=O)(OC(C)C)C(Nc1ccccc1)c1cccnc1 (configuration not stated)
  i	-0.68
O=C(C1=C(O)C(=O)N(CC2CCCO2)C1c1cccc(O)c1)c1ccco1 (configuration not stated)
  i	0.73
CCCCN(C)C(=O)c1nc2ccccn2c1CN1CCC[C@H]1C(=O)OC
  i	0.01
Cc1ccc2nccc(C(=O)N3CCCC(N4CCN(c5ccc(F)cc5)CC4)C3)c2c1 (configuration not stated)
  -6.5*	1.3*
O=C1c2ccccc2S(=O)(=O)N1Cc1nc2ccccc2s1
  i	1.8
CCCN(C(=O)c1cc(-c2ccco2)nc2ccccc12)c1c(N)n(Cc2ccccc2)c(=O)[nH]c1=O
  i	0.13
CCOC(=O)C(Cc1ccccc1)C(=O)Nc1cccc2ccccc12 (configuration not stated)
  -5.8*	2.1*
COc1ccc(C(C(=O)NC2CCCCC2)N(C(=O)c2snc(C(N)=O)c2N)c2ccccc2OC)cc1 (configuration not stated)
  i	0.79
c1ccc(SCc2cn(C[C@H]3CC[C@@H]([C@@H]4CC[C@H](Cn5cc(CSc6ccccc6)nn5)O4)O3)nn2)cc1
  i	-2.2
CN(CC(=O)Nc1ccc(Cl)c(C(F)(F)F)c1)C(=O)Cc1c[nH]c2ccccc12
  i	-0.81
COc1ccc(C(=O)c2cnc3ccccc3c2-c2ccccc2)cc1
  i	-0.11
Cc1ccc(S(=O)(=O)N2CCCCC2CCNC(=O)C(=O)NCc2ccccc2)cc1 (configuration not stated)
  i	-1.1
COc1ccccc1CC(=O)NNS(=O)(=O)c1ccccc1[N+](=O)[O-]
  i	-0.26
CCOC(=O)CN1C(=O)S/C(=C/c2ccc(N3CCCCC3)o2)C1=O
  i	0.04
COc1cc(C2C(C#N)=C(N)Oc3c2ccc2ccccc32)ccc1OCC(=O)Nc1ccccc1C (configuration not stated)
  i	-0.07

# Other results
molecule,KCNQ2 inh,KCNQ2 inh baseline
COc1ccc(S(=O)(=O)N2CCCCCC2)cc1C(=O)N(C)Cc1cccc(OC)c1OC,i,0.55
CC(=O)N1CCc2cc(Br)cc(S(=O)(=O)CCC(=O)N3CCN(c4ccccn4)CC3)c21,i,-1.1
Cc1cc(/C=C(\C#N)C(=O)Nc2ccccc2)c(C)n1-c1cccnc1,i,0.02
Cc1cc(C(=O)CCC(=O)NNC(=O)c2ccccc2O)c(C)s1,i,-2.5
Cn1c(N)c(S(=O)(=O)N2CCN(c3ccccc3F)CC2)c(=O)n(C)c1=O,i,0.08
COc1ccc(S(=O)(=O)N2CCc3ccccc32)cc1C(=O)Nc1cccnc1,i,-0.34
COc1ccccc1C(=O)NC(CCSC)C(=O)NCc1ccccn1 (configuration not stated),i,0.21
CCC(Oc1ccccc1)C(=O)Nc1ccc(-c2nnc(-c3ccco3)o2)cc1 (configuration not stated),i,-0.99
CC(C)(CO)N1CCN(C(=S)Nc2ccccc2)CC1,i,2.3
O=C(C1CCC(Cn2c(=S)[nH]c3ccccc3c2=O)CC1)N1CCOCC1 (configuration not stated),i,0.3
Cc1cc(-c2nn(-c3ccccc3F)cc2CN2CCCC(O)C2)c(C)s1 (configuration not stated),i,2.5
O=C(NCc1ccc2c(c1)OCO2)C1CC(=O)N(c2ccc(Cl)cc2)C1 (configuration not stated),i,0.48
CCC(C)c1ccccc1NC(=S)Nc1cccnc1 (configuration not stated),i,2.9
O=S(=O)(c1cc(F)ccc1F)N1CCN(c2ccccn2)CC1,i,1.8
c1ccc(-c2nnc(CN3CCN(c4ccccc4)CC3)o2)cc1,i,-0.79
Cc1cccc(NC(=O)c2cc(S(=O)(=O)N3CCc4ccccc43)cn2C)c1C,i,-0.61
Cc1cc(C(=O)N2CCN(C(c3ccccc3)c3ccccc3)CC2)on1,i,-1.2
CC1=NN(c2ccc(F)cc2)C(=O)C1C(c1cccc(O)c1)c1c(C)[nH]n(-c2ccc(F)cc2)c1=O (configuration not stated),i,-2.2
CNC(=O)C(=O)NCC1OCCCN1S(=O)(=O)c1ccc2c(c1)OCCO2 (configuration not stated),i,-2.6
Cc1cc(C(=O)CSc2nnc(-c3ccco3)o2)c(C)n1Cc1ccco1,i,0.9
Cc1ccccc1OCCNC(=O)/C=C/c1ccc([N+](=O)[O-])cc1,i,-1
Clc1ccccc1-c1nc(/C=N/N2CCOCC2)c2ccccn12,i,-1.3
CC(=O)N1CCN(C(=O)c2ccc3oc(CCCc4ccccc4)nc3c2)CC1,i,1.2
CCc1cccc(N(C(=O)c2csnn2)C(C(=O)NC(C)(C)C)c2ccccn2)c1 (configuration not stated),i,1.4
COC(=O)C1CCN(Cc2cc(=O)oc3cc(C)c(Cl)cc23)CC1,i,2.7
CCOC(=O)Cc1csc(NC(=O)c2c(O)c3c(n(CC(C)C)c2=O)CCCC3)n1,i,-1.3
CCOC(=O)C1=C(C)OC(N)=C(C#N)C1c1cccs1 (configuration not stated),i,0.83
Cc1ccc(C(=O)N/C(=C\c2cn(S(=O)(=O)N(C)C)c3ccccc23)C(=O)NCCCn2ccnc2)cc1,i,3.9
CCOC(=O)N1CCN(CC(O)COCc2ccc(OC)c(OC)c2)CC1 (configuration not stated),i,-0.52
CC(=C/C(=O)O)/C(=C\c1ccc(Br)o1)C(=O)O,i,0.4
CCOC(=O)C1CCCN(c2cc(C)nc3cc(-c4ccc(Cl)cc4)nn23)C1 (configuration not stated),i,0.72
CCCN1C=CC(=CC=C(C#N)C#N)C=C1,i,8.2
Cc1c(CN2CCC(CO)(Cc3cccc(C(F)(F)F)c3)CC2)c2ccccc2n1C,i,1.8
O=C(CN(Cc1ccccc1Cl)C(=O)CNS(=O)(=O)c1ccccc1)NCC1CCCO1 (configuration not stated),i,0.8
CCOC(=O)CSc1nnc(Cc2cc(=O)[nH]c(=O)[nH]2)n1-c1ccc(Cl)cc1,i,-1
CCCCn1c(N)c(N(CCOC)C(=O)C2CCCN(C(=O)c3ccc(Cl)cc3)C2)c(=O)[nH]c1=O (configuration not stated),i,-0.09
CCc1cc2ccc(OC)cc2nc1SCC(=O)NNC(C)=O,i,1.6
CN(C)C=Nc1ncc2c3ccccc3n(CCN(C)C)c2c1C#N,i,-1.9
CCCCc1ccc(NC(=S)N2CCC(O)CC2)cc1,i,-0.73
O=C1C(Cc2ccccc2)Nc2ncnc(N3CCc4ccccc4C3)c2N1Cc1ccc(Br)cc1 (configuration not stated),i,0.01
COc1cc(C(=O)NC2CC3CCCC(C2)N3CC(=O)Nc2ccccc2)cc(OC)c1OC (configuration not stated),i,-0.06
Cc1cc(NC(=O)COC(=O)CCCOc2ccc(Cl)cc2C)no1,i,0.71
O=C(NCCc1c[nH]c2ccccc12)c1cc(S(=O)(=O)N2CCCCC2)ccc1N1CCOCC1,i,1.2
O=C(O)c1ccc(CSCc2ccccc2F)o1,i,2.3
Cc1ccccc1Cn1c(O)c(N=NC(=S)Nc2ccccc2F)c2ccccc21,i,-1.5
Cc1nonc1C(=O)N/N=C/c1ccc([N+](=O)[O-])o1,i,0.92
CCC(C(=O)NCc1ccncc1)c1ccccc1 (configuration not stated),i,-0.56
CCC1CCCCN1C(=O)COc1cc(=O)n(C)c2ccccc12 (configuration not stated),i,0.85
O=C(COC(=O)c1cccnc1Cl)NCC1CCCO1 (configuration not stated),i,-0.04

# This is a subset; the hit share may differ from the screen's.
